# MT1-MMP act inh – blocks activation of human MT1-MMP | HT1080 RFP-PRO-GFP cells, GFP/RFP ratio fluorescence, overnight; percent of plate control window, DMSO zero | GFP/RFP ratio change, % at 20 µM | 360,000 tested, 0.061% active | AID 651647;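 active = GFP/RFP ratio change of at least 30% with cell ATP level not reduced by more than half and red fluorescence within 50% of control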; also: strong numbers were not always called active
#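 Read-out: GFP/RFP fluorescence ratio; Test system: RFP-PRO-GFP reporter HT1080 cells; Compound dosing: single-point 20 µM compound, 1% DMSO; Times: overnight compound exposure at 37 °C.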
# eIF4H FP inh – inhibitors of RNA binding by human eIF4H; 290,000 tested, 0.94% active; eIF4H fluorescence polarization binding assay; inhibition, % at 35 µM;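 active = 50% or more with normal probe brightness, or confirmed in later tests; about a fifth of its hits are not listed in these tables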;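 also: calls also rest on retests at 20 µM and on dose response follow-up; 0% = protein and probe with vehicle and 100% = probe without protein; strong numbers were not always called active; many hits fall short of the cut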
# Rce1 inhib – yeast Ras-converting enzyme inhibition; AID 2563; yeast membranes, quenched prenylated peptide cleavage fluorescence; Q03530; 290,000 tested, 0.27% active; calls only;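 active = fall in fluorescence gain of 50% or more versus controls, with final raw signal at or below 3038400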;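 also: plate controls were neutral control wells for no effect and wells lacking membranes for full effect; tested at 10 µM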
# Target sequence (Q03530 whole entry, looked up): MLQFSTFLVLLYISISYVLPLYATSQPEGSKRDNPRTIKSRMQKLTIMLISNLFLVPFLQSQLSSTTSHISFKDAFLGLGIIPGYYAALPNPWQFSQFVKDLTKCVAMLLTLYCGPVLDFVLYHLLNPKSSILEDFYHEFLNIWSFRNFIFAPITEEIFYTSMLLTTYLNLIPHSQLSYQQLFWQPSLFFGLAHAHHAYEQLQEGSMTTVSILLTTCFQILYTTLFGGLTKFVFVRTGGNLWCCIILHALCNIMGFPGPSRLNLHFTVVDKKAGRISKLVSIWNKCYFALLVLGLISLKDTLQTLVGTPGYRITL
# PABP FP inh – blocks human PABP binding to poly(A) RNA | AID 2014 | fluorescence polarization | inhibition, % at 35 µM | 290,000 tested, 1% active | P11940;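 active = 50% or more with normal probe brightness, or confirmed in later tests; about a fifth of its hits are not listed in these tables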;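 also: calls also rest on retests at 20 µM and on dose response follow-up; controls were probe without protein and protein plus probe with vehicle; some compounds called inactive have numbers as strong as hits; many hits fall short of the cut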
# Target sequence (P11940 whole entry, looked up): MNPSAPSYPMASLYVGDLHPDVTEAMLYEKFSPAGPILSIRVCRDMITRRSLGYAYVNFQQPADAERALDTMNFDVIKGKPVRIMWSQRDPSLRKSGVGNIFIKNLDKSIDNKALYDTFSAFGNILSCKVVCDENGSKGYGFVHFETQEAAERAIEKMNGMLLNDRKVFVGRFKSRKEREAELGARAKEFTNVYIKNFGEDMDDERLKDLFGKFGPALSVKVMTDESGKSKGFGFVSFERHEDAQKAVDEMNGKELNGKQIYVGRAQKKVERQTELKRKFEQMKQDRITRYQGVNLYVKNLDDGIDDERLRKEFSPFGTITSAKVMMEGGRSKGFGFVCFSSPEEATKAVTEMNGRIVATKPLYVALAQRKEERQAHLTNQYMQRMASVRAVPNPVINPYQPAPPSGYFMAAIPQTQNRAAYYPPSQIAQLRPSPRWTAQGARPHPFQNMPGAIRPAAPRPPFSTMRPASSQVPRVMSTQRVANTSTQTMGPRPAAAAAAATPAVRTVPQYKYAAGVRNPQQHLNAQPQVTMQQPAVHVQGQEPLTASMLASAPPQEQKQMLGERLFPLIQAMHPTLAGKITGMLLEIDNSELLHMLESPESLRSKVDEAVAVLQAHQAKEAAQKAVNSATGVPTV
# Env fusion inh – HIV envelope-mediated fusion inhibition. HeLa-JRFL Env/CEM21 cell fusion, luciferase. inhibition, % at 12.3 µM. 360,000 tested, 1.1% active;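 active = mean replicate inhibition score of at least 50 and every replicate individually at or above 50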;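 also: 0% = plate neutral controls and 100% = maraviroc near 300 nM; one replicate is shown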
# CSC inhib – blocks cancer stem cells | cancer stem cell-like cells viability, luminescence | inhibition, % at 7.5 µM | 300,000 tested, 1.1% active;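 active = mean at 75% or more and at least half the replicates too; tested in HMLE shEcad cells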;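 also: 0% = median of negative and 100% = median of positive control wells; the first replicate is given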
# UUG fidelity – modulators of start codon recognition fidelity in yeast | S. cerevisiae UUG-firefly luciferase reporter, luminescence/redox ratio | activity score, % at 18.7 µM | 350,000 tested, 0.13% active;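 active = replicate mean at a twofold rise or more, about +100% in these data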;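 also: firefly luciferase made from a UUG start codon reports start codon fidelity; reporter light over untreated wells divided by growth signal over untreated wells; some hits fall short of that in this replicate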
# MT1-MMP act inh RFP – further read-out of MT1-MMP act inh, marked with its call; RFP signal change, %; measured here: RFP expression control read;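 0 = vehicle wells; hits needed this value within 50% of zero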
# Active calls of the source: *; i = inactive; x = no result given.
SMILES,MT1-MMP act inh,MT1-MMP act inh RFP,eIF4H FP inh,Rce1 inhib,PABP FP inh,Env fusion inh,CSC inhib,UUG fidelity
CC1(c2ccccc2Cl)NC(=O)N(CC(=O)NCc2ccco2)C1=O (stereo unspecified),-2,0,3,i,2,27,4,x
Cc1occc1C(=O)N1CCCC(CO)(Cc2ccc(F)cc2F)C1 (stereo unspecified),0,2,-11,i,-2,x,-7,-12
COc1ccc(/C=N/NC(=O)c2ccc3nc[nH]c3c2)cc1OC,2,-2,3,i,-2,-29,-9,x
COc1ccc(Nc2ccccc2N)cc1,31*,13*,2,i,-10,3,38,x
O=C(CCSc1nc(-c2ccco2)cc(C(F)(F)F)n1)N1CCN(c2ccccc2)CC1,-1,-2,-7,i,-4,x,13,-17
C=CCN(c1ccccc1)S(=O)(=O)c1cccc(C(=O)Nc2ncccc2O)c1,3,0,x,i,x,x,-1,-16
CCOC(=O)c1cc(NC(=O)SCC(=O)O)c(C)nc1C,5,5,-8,i,7,x,-4,3
CN(C(=O)COc1ccccc1)c1nnc(-c2cccnc2)s1,0,4,-10,i,-3,4,28,-10
Cn1c(CNC(=O)c2ccc3c(c2)OCO3)nnc1SCC(=O)Nc1ccc(F)cc1F,2,3,5,i,-5,-1,-15,-8
O=C(CCCNC(=O)c1ccc(Cl)cc1)Nc1nccs1,-2,-1,x,x,x,-16,-2,13
Cc1ccc(NC(=S)N2CCN(Cc3ccc4c(c3)OCO4)CC2)c(C)c1,0,-3,x,i,x,-5,25,-18
C[C@@H](C(=O)N1CCN(Cc2ccc3c(c2)OCO3)CC1)n1nnc2ccccc2c1=O,2,1,-4,i,3,-3,4,-2
CC[C@H](C)[C@H](NC(=O)c1ccc(Cl)cc1)C(=O)OCC(=O)c1ccc2c(c1)NC(=O)CO2,-4,-10,5,i,-1,-32,0,-7
Cc1ccc(N(CC(=O)NC2CC3CCC2C3)S(C)(=O)=O)cc1C (stereo unspecified),-5,-6,13,i,14,-53,-3,-10
COc1ccc(S(=O)(=O)Nc2ccc(F)cc2)c(C)c1C,-3,-5,7,i,-5,-21,1,-1
CCOC(=O)c1ccc(NC(=O)c2sc3nc4n(c(=O)c3c2C)CCC4)cc1,0,-8,-10,i,1,0,-3,-7
COc1ccc(Nc2nc(NCc3ccco3)nc(N/N=C/c3ccc(O)cc3)n2)cc1,10,1,-4,i,-6,x,3,-25
CC(=O)Nc1ccc(S(=O)(=O)NCCC(=O)NCCc2ccc(F)cc2)cc1,-2,3,-2,i,3,x,4,x
CCc1nn2c(N(C)CCO)cc(C)nc2c1-c1ccc(F)cc1,4,0,-9,i,-2,6,x,5
S=C(Nc1cccc2ccccc12)Nc1cccc2ccccc12,-2,2,x,x,x,13,x,-16
O=C(/C=C/c1cccc([N+](=O)[O-])c1)NCc1ccccc1,1,2,-2,i,9,-5,-8,x
Cn1c(Oc2ccccc2)c(C=O)c2ccccc21,7,-4,12,i,2,x,-6,0
Cc1ccc(-c2nnc(Nc3ccc4c(c3)OCO4)c3ccccc23)cc1S(=O)(=O)NC(C)C,-11,-13,-5,i,26,27,-9,x
Cc1noc(C)c1CSCC(=O)N(C)CC(=O)Nc1ccc(F)cc1,-1,1,x,i,x,4,3,0
CCN(CC)S(=O)(=O)c1ccc2c(c1)nc(CCC(=O)OCC(=O)Nc1cc(OC)cc(OC)c1)n2C,4,12,-7,i,3,x,-2,x

# Exported with each value named: part of the list above.
molecule: O=C(CCSc1nc(-c2ccco2)cc(C(F)(F)F)n1)N1CCN(c2ccccc2)CC1
  MT1-MMP act inh: -1	MT1-MMP act inh RFP: -2	eIF4H FP inh: -7	Rce1 inhib: i	PABP FP inh: -4	Env fusion inh: x	CSC inhib: 13	UUG fidelity: -17
molecule: C=CCN(c1ccccc1)S(=O)(=O)c1cccc(C(=O)Nc2ncccc2O)c1
  MT1-MMP act inh: 3	MT1-MMP act inh RFP: 0	eIF4H FP inh: x	Rce1 inhib: i	PABP FP inh: x	Env fusion inh: x	CSC inhib: -1	UUG fidelity: -16
molecule: CCOC(=O)c1cc(NC(=O)SCC(=O)O)c(C)nc1C
  MT1-MMP act inh: 5	MT1-MMP act inh RFP: 5	eIF4H FP inh: -8	Rce1 inhib: i	PABP FP inh: 7	Env fusion inh: x	CSC inhib: -4	UUG fidelity: 3
molecule: CN(C(=O)COc1ccccc1)c1nnc(-c2cccnc2)s1
  MT1-MMP act inh: 0	MT1-MMP act inh RFP: 4	eIF4H FP inh: -10	Rce1 inhib: i	PABP FP inh: -3	Env fusion inh: 4	CSC inhib: 28	UUG fidelity: -10

# Going on with the list.
SMILES,MT1-MMP act inh,MT1-MMP act inh RFP,eIF4H FP inh,Rce1 inhib,PABP FP inh,Env fusion inh,CSC inhib,UUG fidelity
CCCCOc1ccc(C(=O)Nc2ccc(N3CCN(C)CC3)cc2)cc1,5,-4,-7,i,-4,x,x,-5
CCc1c(C)nc(N)n2c(SCC(=O)NC3CCCCC3)nnc12,0,4,8,i,-2,15,x,-22
CCS(=O)(=O)N1Cc2ccccc2CC1C(=O)Nc1nnc(C2CC2)s1 (stereo unspecified),-1,0,-9,i,-6,-7,-2,x
Nc1nc(-c2ccc3c(c2)CCC(=O)N3)cs1,3,3,5,i,6,-9,5,x
COc1cccc(C2C(C(C)=O)=C(C)Nc3ncnn32)c1 (stereo unspecified),1,3,-7,i,-3,x,-4,-23
CCCc1ccc(C(=O)N2CCN(c3ccccc3OCC)CC2)cc1,-11,-2,0,i,-6,x,-1,-6
CCOC(=O)C(=NCCCN(C)C)NNc1cc(C(F)(F)F)ccc1Cl,-3,0,-3,i,4,5,1,-19
COc1ccc(NC(=O)c2c(C)nn(Cc3ccccc3)c2C)cc1S(=O)(=O)N(C)C,0,-2,2,i,3,-6,-1,-6
CC(C)N(CCO)Cc1nc(C(c2ccccc2)c2ccccc2)no1,-2,0,-9,i,-14,12,-4,18
CCOC(=O)c1nc(C)sc1-c1ccnn1S(=O)(=O)c1ccc(Cl)cc1Cl,1,-1,-6,i,9,12,5,x
O=C(Nc1cccc2[nH]ncc12)NS(=O)(=O)c1ccccc1,4,8,40,i,28,-6,-2,-2
O=C(/C=C/c1ccccc1)NC(=S)NNC(=O)Cc1cccs1,4,1,17,i,8,20,2,-21
CCc1nc2c(OCCn3cccc3)cccn2c1N(C)C(=O)c1ccc(OC)cc1,-3,3,x,x,x,9,x,-2
Cc1noc(C)c1C(=O)OCC(=O)NC(c1ccccc1)c1ccccc1,-7,-3,-12,i,9,-23,-10,-14
Cc1ccc(CNC(=O)CCC(=O)c2cccs2)cc1,-5,-1,2,i,11,0,-5,-10
CCc1ccc(S(=O)(=O)Nc2ccc(O)c3ccccc23)cc1,1,-3,-7,i,14,18,92*,-7
CN(NS(=O)(=O)c1ccc(Cl)cc1)c1ncc(C(F)(F)F)cc1Cl,1,1,9,i,10,7,-6,9
CCOc1cccc(CN(CC)CC2CCCN(CCc3cccc(OC)c3)C2)c1O (stereo unspecified),0,-1,1,i,-12,2,4,11
Cc1ccc(NC(=O)Cn2sc3nc(C)cc(C)c3c2=O)c(Cl)c1,-2,1,6,i,-1,-14,22,-19
CCOC(=O)c1ccc(S(=O)(=O)Nc2nc3cc(S(=O)(=O)NC4=NCCCCC4)ccc3s2)cc1,1,1,-2,i,-14,10,1,x
O=C(NCCc1ccc(Cl)cc1)C1CCC(CNc2c(N3CCCCC3)c(=O)c2=O)CC1 (stereo unspecified),2,-2,5,i,-1,7,-15,3
COc1cccc(NC(=O)C2(C)CCN2C(=O)C2CCCCC2)c1 (stereo unspecified),-1,-4,x,x,x,-19,x,10
CCc1ccc2[nH]c3nc(SCc4nnc(-c5ccc(C)cc5)o4)nnc3c2c1,-4,-3,-7,i,-10,-83,8,-17
N#CC1=C(N)Oc2cc(N)ccc2C1c1cccc(Br)c1 (stereo unspecified),10,-5,-9,i,-7,-278,82*,2
Cc1cc(C(=O)N2CCN(C/C=C/c3ccccc3)CC2)cs1,3,-1,-7,i,1,x,-4,x
# Remaining list, next part
SMILES,MT1-MMP act inh,MT1-MMP act inh RFP,eIF4H FP inh,Rce1 inhib,PABP FP inh,Env fusion inh,CSC inhib,UUG fidelity
O=C(NCCc1ccccc1)c1cc(S(=O)(=O)N2CCCCC2)c[nH]1,6,3,x,x,x,-15,x,-9
Cc1ccc(-c2nn3c(C)nnc3s2)cc1NC(=O)c1ccc(-c2cccc(Cl)c2)o1,-14,-2,14,i,0,-24,x,-21
Cc1ccc(S(=O)(=O)N2C[C@H]3C(=O)C[C@@H](c4ccccc4F)N(S(=O)(=O)c4ccc(C)cc4)[C@H]3C[C@H]2c2cccc3ccccc23)cc1,-1,-2,x,x,x,-67,x,-19
Cc1cc(OC(C)C(=O)NCc2ccncc2)c2c(C)c(C)c(=O)oc2c1 (stereo unspecified),2,-1,-3,i,9,4,-7,-15
CN1CCN(C(=O)C2Cc3c(-c4cccc(F)c4)ccnc3O2)CC1 (stereo unspecified),3,4,x,x,x,-14,x,-7
Cc1csc(NC(=O)C2CCCN(S(=O)(=O)c3ccc4c(c3)oc(=O)n4C)C2)n1 (stereo unspecified),-3,-17,-5,i,-11,24,3,12
CC(C)OC(=O)c1sc2nc(-c3ccccc3)ccc2c1N,-3,0,2,i,-4,x,7,-26
CC(CCc1ccccc1)NCc1cccc2ccccc12 (stereo unspecified),-1,1,-4,i,6,66*,3,-10
O=C(Nc1ccc(F)cc1F)c1cccc(C(=O)Nc2ccc(F)cc2F)n1,-1,-3,-4,i,-8,58*,56,2
COC(=O)C(C)(C(=O)OC)c1ccc(C(F)(F)F)cc1[N+](=O)[O-],0,1,2,i,3,5,-9,x
COc1cccc(NC(=O)CC(=O)c2ccccc2)c1,2,4,7,i,5,-50,-3,-5
CC(=O)c1c(C)[nH]c(C(=O)OCc2c(F)cccc2Cl)c1C,-20,-30,-4,i,4,0,x,x
Cn1cc(S(=O)(=O)N2CCN(C(=O)c3ccco3)CC2)c(=O)n(C)c1=O,6,9,-3,i,-6,13,-1,-11
CCN(CC)S(=O)(=O)c1ccc(NC(=O)c2cccs2)cc1,5,3,11,i,4,11,2,-7
Cc1ccc(S(=O)(=O)NC(CC(C)C)C(=O)N2CCOCCOCCOCC2)cc1 (stereo unspecified),2,6,-1,i,11,4,1,3
CCOc1ccc(S(=O)(=O)N2CCN(C(=O)C3CC3C)CC2)cc1 (stereo unspecified),1,-3,x,x,x,1,-12,17
COc1ccccc1N1CCN(C(=O)c2ccccc2Oc2ccccc2)CC1,-3,-2,-4,i,-2,x,-11,-11
Cc1occc1-c1nnc(SCC(=O)N2CCCc3ccccc32)n1Cc1ccco1,-5,-2,-7,i,10,x,x,-2
COc1ccc(OC)c(-n2c(-c3ccc(O)cc3O)n[nH]c2=S)c1,10,4,11,i,5,9,-14,-18
O=C(Nc1ccc(F)cc1)N1CCOCC1,8,1,-6,i,-3,-63,8,8
Cc1cc(C)n(-c2nc(C)nc3sc4c(c23)CCC(C)C4)n1 (stereo unspecified),-10,0,6,i,1,x,-9,-5
COC(=O)c1ccc(CNC(=O)CSc2nc3ccccc3[nH]2)cc1,2,2,-9,i,-2,-2,-9,-20
Cc1cccc(C(=O)Nc2nnc(S(=O)(=O)N3CCCCCC3)s2)c1,1,-9,-2,i,3,-17,13,-11
O=C(COC(=O)c1cc(NS(=O)(=O)c2cccs2)ccc1O)Nc1cc(Cl)ccc1Cl,0,2,6,i,0,22,3,x
CCC(=O)Oc1ccc(C(=O)Nc2c[nH]c(=O)[nH]c2=O)cc1,2,4,2,i,6,-23,-9,x
C#CCSc1nc2ccccc2n1C(=O)c1ccc(S(=O)(=O)N2CCCCC2)cc1,2,6,16,x,18,-55,-3,33
Cc1cc(C)nc(CC(N)=O)n1,6,5,4,i,5,x,-7,1
Cc1ccc(O)c(C(CC(=O)NCc2cccnc2)c2ccccc2)c1 (stereo unspecified),2,1,-5,i,-14,10,-8,x

# Already shown: an excerpt of the list.
SMILES,MT1-MMP act inh,MT1-MMP act inh RFP,eIF4H FP inh,Rce1 inhib,PABP FP inh,Env fusion inh,CSC inhib,UUG fidelity
CCC(=O)Oc1ccc(C(=O)Nc2c[nH]c(=O)[nH]c2=O)cc1,2,4,2,i,6,-23,-9,x
C#CCSc1nc2ccccc2n1C(=O)c1ccc(S(=O)(=O)N2CCCCC2)cc1,2,6,16,x,18,-55,-3,33

# Only part of the results is shown; count on the stated rates, not on these rows.
